# Screening data from PubChem.
# Mtb hypoxia rep = reduces hypoxia-regulated biosensor signal in M. tuberculosis; AID 1159583; fluorescence inhibition, % (no concentration beside the values); M. tuberculosis hypoxia-regulated fluorescent reporter, fluorescence; 300,000 compounds, 0.1% hits;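 active = 35 to 45% if threefold the growth effect, above 45% if 1.5-fold the growth effect; inactive = the rest, general growth blockers included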;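 note: wells of about 50 µL received 100 nL stock; 0% = vehicle wells and 100% = reference inhibitor wells; whole bacteria with a GFP reporter of the hypoxia response; strong numbers were not always called active; many hits fall short of the cut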
# ugtP null kill = kills S. aureus RN4220 lacking UgtP. S. aureus RN4220 ugtP deletion, OD600 growth, 16 h; some inactives read as strong as hits. growth inhibition, % (no concentration beside the values). 330,000 compounds, 0.54% hits. AID 1259309;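 active = z-score under -3 and OD600 up to 0.15 on both plates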;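 note: plate controls were untreated wells for no effect and antibiotic for full effect; wells of about 80 µL received 100 nL stock; the first replicate is given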
# PrP UTR inh = inhibition of PrP 5' UTR reporter expression; cell-based PrP 5' UTR mRNA reporter, plate reader; inhibition, % (test concentration not listed); 340,000 compounds, 0.35% hits; AID 488862;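 active = every replicate at 50% or more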;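 note: 0 = median of the neutral control wells; tested in H4 reporter cells; numbers are from one replicate; inactives centre near -14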
# Autofluor counter = flagged as autofluorescent in microsphere protease counterscreen. compound autofluorescence counterscreen, microsphere flow cytometry; active compounds read high. fluorescence intensity (test concentration not listed). 360,000 compounds, 3.1% hits. AID 624483;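 active = at least 3 SD above the mean of all compounds, about 16000 in these data; inconclusive = too few beads counted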;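 note: 100 nL of 1 mM stock went into each well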
# RN4220 kill = S. aureus RN4220 growth inhibition; 330,000 compounds, 0.33% hits; OD600, 16 h; AID 1259311; inhibition, % (test concentration not listed);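 active = z-score of -3 or lower and OD600 up to 0.18 on both plates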;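 note: plate controls were untreated cells for no effect and reference antibiotic for full effect; stock transfer was 100 nL into about 80 µL; one replicate is shown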
# BJeLR viability = kills HRASV12-expressing BJeLR cells. inhibition, % (test concentration not listed). AID 1554. 300,000 compounds, 0.17% hits. BJeLR (HRASV12) viability, CellTiter-Glo ATP luminescence, 48 h; reference of the scale not given here;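 active = replicate mean above 50%; inconclusive = above 50% but judged a plate artefact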;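 note: 50 nL library stock added to about 25 µL; numbers are from one replicate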
# Mtb hypoxia rep growth = second read-out of Mtb hypoxia rep, no call of its own (marks repeat the call); growth inhibition, %; measured here: M. tuberculosis growth (absorbance);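 0% = vehicle and 100% = reference antibiotic; read after six days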
# Numbers without * were called inactive; ? = inconclusive; . = not tested or not shown.
SMILES,Mtb hypoxia rep,Mtb hypoxia rep growth,ugtP null kill,PrP UTR inh,Autofluor counter,RN4220 kill,BJeLR viability
Cc1cc(C)c(O)c(NC(=S)NC(=O)Cc2ccccc2)c1,10.2,-2.5,11.9,-12.6,3593,0.0,-20.0
C=CCOc1ccc(C=NNC(=O)CC(=O)NC2CCCCC2)cc1,7.7,4.1,0.6,.,.,-1.6,.
Cc1ccc(S(=O)(=O)N2CCOCC2)cc1C(=O)N1CC(C)CC(C)C1 (stereo unspecified),14.5,2.0,6.0,-8.9,2895,5.5,.
COc1cccc(N(C(=O)c2snc(C(N)=O)c2N)C(C(=O)NCC2CCCO2)c2ccc(C)o2)c1 (stereo unspecified),-17.6,-1.3,6.5,-15.3,4884,6.4,-16.1
Cc1ccc(NC(=O)CC2C(=O)N(Cc3ccccc3)C(=S)N2NC(=O)c2cccc(F)c2)c(C)c1 (stereo unspecified),2.3,2.4,3.2,-25.0,2068,5.1,-3.5
CC(C)(C)OC(=O)N1CCC(C(=O)N[C@@H](Cc2ccccc2)C(=O)O)CC1,.,.,.,-11.1,3084,.,1.2
Cc1cc(NC(=O)C2CCN(S(=O)(=O)c3cccs3)CC2)no1,.,.,3.1,3.1,2671,-4.5,-10.0
CCCc1c(C(=O)Nc2ccc(F)cc2)cnn1-c1ccccc1,6.7,6.0,7.9,-23.2,.,-1.3,2.1
COc1ccc(F)cc1S(=O)(=O)NC1CC(C)(C)NC(C)(C)C1,-5.5,0.7,-6.8,-6.9,3389,0.4,0.8
CCC1Oc2ccccc2N(CC(=O)Nc2ccccc2OC)C1=O (stereo unspecified),5.6,12.6,-3.5,-22.8,22225*,6.1,-7.1
CC(C)NS(=O)(=O)c1ccc(OCC(=O)N2CCN(Cc3ccc4c(c3)OCO4)CC2)c(Cl)c1,0.2,-3.4,-1.4,-4.2,20603*,4.4,8.4
S=C(N1CCCCCC1)N1CC1,10.7,1.5,13.6,-6.8,3186,6.6,.
Cc1cc(C(=O)NCCc2ccc(S(N)(=O)=O)cc2)no1,8.1,20.8,-1.5,-59.2,4287,2.3,1.9
Cn1ccsc1=NC(=O)c1cccc(OC(F)F)c1,6.3,9.4,13.5,.,3665,4.6,-14.6
CCCC(=O)Nc1c2c(nn1-c1cccc(Cl)c1)CS(=O)(=O)C2,-5.8,7.1,1.8,-3.6,5998,0.3,-3.0
CN(c1ccccc1)S(=O)(=O)c1cccc(C(=O)N2CCCCCC2)c1,6.3,-2.0,4.2,-17.4,.,4.2,.
COc1ccc(/C=N/NC(=O)c2c(C)n(C)c3ccc(OC)cc23)c(OC)c1,.,.,.,-4.5,2180,.,-0.7
O=C1CCCN1c1ccc(S(=O)(=O)Nc2ccc3c(c2)OCCO3)cc1,11.2,1.0,0.5,-47.4,12821,3.4,25.9
Cn1ncc(Cl)c1C(=O)N/N=C/c1cc2c(cc1[N+](=O)[O-])OCO2,.,.,.,-18.8,1971,.,9.7
O=C(NN=C/C=C/c1cccc([N+](=O)[O-])c1)C(O)c1ccccc1 (stereo unspecified),10.8,10.7,6.7,.,.,-2.0,.
O=C(NCCc1ccccc1)c1ccc(Cl)cc1[N+](=O)[O-],6.9,5.1,4.2,-41.9,3928,2.0,7.6
CCn1c(SCC(=O)Nc2ccc(OC)cc2)nc2nc3c(cc2c1=O)CCCC3,7.9,-0.5,3.4,-4.0,3080,3.6,3.9
COc1cccc(-c2cc(C(=O)NCCCn3ccnc3)no2)c1,2.6,0.1,1.5,-15.9,10369,0.5,23.3
Cc1ccc(S(=O)(=O)c2cc(O)ccc2O)cc1C,2.9,1.8,2.5,-29.5,2470,2.2,-10.6
Cc1nn(C)c(=O)c(N)c1-c1cc(-c2ccc(Cl)c(Cl)c2)n[nH]1,9.4,0.7,-2.6,.,.,-0.6,-0.1

# Brought forward from above: 6 entries, then new ones.
SMILES,Mtb hypoxia rep,Mtb hypoxia rep growth,ugtP null kill,PrP UTR inh,Autofluor counter,RN4220 kill,BJeLR viability
O=C(NN=C/C=C/c1cccc([N+](=O)[O-])c1)C(O)c1ccccc1 (stereo unspecified),10.8,10.7,6.7,.,.,-2.0,.
O=C(NCCc1ccccc1)c1ccc(Cl)cc1[N+](=O)[O-],6.9,5.1,4.2,-41.9,3928,2.0,7.6
CCn1c(SCC(=O)Nc2ccc(OC)cc2)nc2nc3c(cc2c1=O)CCCC3,7.9,-0.5,3.4,-4.0,3080,3.6,3.9
COc1cccc(-c2cc(C(=O)NCCCn3ccnc3)no2)c1,2.6,0.1,1.5,-15.9,10369,0.5,23.3
Cc1ccc(S(=O)(=O)c2cc(O)ccc2O)cc1C,2.9,1.8,2.5,-29.5,2470,2.2,-10.6
Cc1nn(C)c(=O)c(N)c1-c1cc(-c2ccc(Cl)c(Cl)c2)n[nH]1,9.4,0.7,-2.6,.,.,-0.6,-0.1
CCOC(=O)C1=C(c2ccccc2)NC(=O)NC1c1ccc(OC)cc1OC (stereo unspecified),8.1,1.8,11.1,2.9,3620,0.6,4.7
CSCCNC(=O)Nc1c(-c2c(Cl)cccc2Cl)noc1C,13.2,-1.2,-3.8,-28.8,4785,3.3,-1.2
Cc1ccc(C(=O)COC(=O)CCN2C(=O)C3C4CCC(C4)C3C2=O)cc1C (stereo unspecified),-2.1,11.2,-4.3,-7.8,6288,0.2,-4.7
CCOC(=O)c1cnn(-c2cc(C(C)(C)C)nc3c(-c4ccccc4)c(C)nn23)c1N,-3.3,-0.5,2.8,-13.0,26542*,-3.3,7.2
C[C@]12C(=O)N(c3ccccc3)C(=O)N1[C@@H]1c3ccccc3OC[C@@H]1[C@H]2c1ccccc1,-4.0,-1.8,8.7,0.9,2904,20.5,-2.0
COc1ccccc1-c1c(C)[nH]n2c(=O)c(Cc3ccccc3)c(C)nc12,5.7,2.9,1.1,-20.2,4188,3.4,-1.9
O=C(NC1CCN(Cc2ccccc2)CC1)c1ccc(Oc2cc(Cl)cc(Cl)c2)o1,5.3,-0.3,0.1,-19.6,6137,0.7,0.9
O=C1OCCC1=Cc1ccccc1,5.2,3.4,4.8,-11.6,3913,6.5,.
COc1ccc(CNC(=O)COC(=O)c2cccs2)cc1,6.3,-4.3,-0.3,-6.4,3190,3.2,-4.5
CCOc1ccc(NS(=O)(=O)N(C)C)cc1,.,.,-3.2,-7.7,4032,-0.3,-9.1
COc1cc2c(cc1OC)C13CCN4CC5=CCOC6CC(=O)N2C1C6C5C3C4 (stereo unspecified) (tested in a mixture with another compound),5.2,6.1,3.4,-26.8,3806,4.1,.
O=C(CNC(=O)Cc1cccc2ccccc12)NCc1ccccc1F,16.5,8.6,3.1,-19.9,4141,3.6,6.2
O=C(Nc1cccc(S(=O)(=O)N2CCCCCC2)c1)c1ccc(Cl)nc1,9.7,11.7,-1.4,-18.1,3458,8.3,.
COC(=O)N1C(=O)[C@@](c2ccc(OC)cc2)(C(C)C)N1C(=O)OC,.,.,.,-1.2,2855,.,-1.5
CCC(C)(C)NC(=O)C(c1ccc(OC)cc1)N(Cc1ccccc1)C(=O)CCC(=O)Nc1cc(C)on1 (stereo unspecified),2.6,0.2,3.5,-22.9,4424,1.1,-9.5
COc1ccccc1C1CC(=O)Oc2cc(C)c(Cl)cc21 (stereo unspecified),-17.9,-3.6,-8.1,-11.4,3522,2.4,.
Cc1ccc(S(=O)(=O)NCCC(=O)NCCOc2ccccc2)cc1,5.8,-4.9,14.0,-19.7,6644,-0.8,.
CCCCC(CCC(=O)NNC(=O)Cc1ccccc1)C(=O)O (stereo unspecified),2.1,-4.4,8.2,-4.8,1895,1.9,2.1
COc1ccc(NC(=O)Cn2nnc(C(=O)NCc3cccc(OC)c3)c2N)cc1,.,.,8.8,-19.8,2840,2.4,4.9
Cc1c(O)nc(SC2CC(=O)N(c3cc(Cl)cc(Cl)c3)C2=O)[nH]c1=O (stereo unspecified),-4.3,-3.1,4.7,-18.2,4150,5.9,17.4
CC1CC(C)CN(C(=O)c2ccc(C#N)cc2)C1 (stereo unspecified),9.3,6.8,18.3,-35.0,4011,2.6,-3.2
O=C(NCc1nnc(SCC(=O)N2CCOCC2)o1)c1c(F)cccc1F,0.7,-8.5,4.8,-9.3,6025,2.4,4.8
COCCNC(=O)CCc1nc(-c2ccccc2)no1,.,.,-1.6,5.6,3510,-1.4,4.1
N=C1c2ccccc2CN1NC(=O)c1ccc(F)cc1,10.0,7.0,2.2,-9.9,8858,3.3,-2.0
COc1ccc(OC)c(C2CC(=O)Nc3cc(OC)c(OC)c(OC)c32)c1 (stereo unspecified),.,.,0.9,-0.9,2259,-2.0,1.0
# (list continues)
SMILES,Mtb hypoxia rep,Mtb hypoxia rep growth,ugtP null kill,PrP UTR inh,Autofluor counter,RN4220 kill,BJeLR viability
COc1ccccc1NS(=O)(=O)c1cc(NC(=O)C2CC2)ccc1N1CCOCC1,14.8,5.4,4.3,.,.,3.4,1.4
COC(=O)CNc1c(-c2ccccn2)nc2ccc(Br)cn12,12.1,12.5,-4.4,-66.9,8045,4.0,17.8
CCCn1nc(C(=O)N2CCc3ccccc32)c2ccccc2c1=O,4.2,8.1,4.6,-12.2,8106,2.0,.
Cc1ccccc1N(C(=O)c1csnn1)C(C(=O)NC1CCCC1)c1ccncc1 (stereo unspecified),3.0,-4.6,6.7,-22.8,3616,3.0,-8.7
CN(c1ccccc1)S(=O)(=O)c1cccc(NC(=O)CCN2C(=O)C3CCCCC3C2=O)c1 (stereo unspecified),7.9,11.7,-65.4,-7.1,3555,16.9,10.8
COc1ccccc1N1CCN(/N=C/c2ccc([N+](=O)[O-])cc2)CC1,.,.,.,-53.9,4150,.,10.7
O=C(O)CC(c1cccc(C(F)(F)F)c1)N1CCS(=O)(=O)CC1 (stereo unspecified),15.1,-1.3,5.5,-17.7,4560,3.1,7.6
Cc1ccccc1C(=O)Nc1ccc(N2CCN(C(=O)c3ccco3)CC2)cc1,-10.0,3.1,11.9,-19.6,3036,4.6,10.3
CC(C)=CCN1CCN(CC#Cc2ccccc2)CC1CCO (stereo unspecified),11.5,1.6,10.7,-24.8,?,3.8,-0.1
CC(Sc1nnc(COc2ccc3ccccc3c2)n1C)C(=O)O (stereo unspecified),4.9,4.4,8.2,-22.9,9783,0.0,0.4
CS(=O)(=O)c1ccccc1-c1nnc(NC(=O)CCS(=O)(=O)c2ccc(Cl)cc2)o1,3.1,4.4,0.2,-24.5,5582,-1.9,4.7
NC(=O)NN=Cc1cn(CC(=O)Nc2ccc(F)cc2)c2ccccc12,70.1*,36.8*,5.0,.,.,6.6,.
Cc1cc(C(=O)CN2C(=O)C3CC=CCC3C2=O)c(C)n1-c1ccccc1 (stereo unspecified),5.3,5.3,1.9,-34.2,6604,-1.2,2.0
C/C=C1\COC(C(=O)NCCN2CCCC2)(C(F)(F)F)C=C1C=C1CCCCC1 (stereo unspecified),.,.,.,-26.6,3914,.,18.3
CC1=C(C(=O)c2ccccc2)C(c2ccc(OC(F)F)cc2)NC(=S)N1 (stereo unspecified),3.2,3.5,3.7,-32.1,4644,4.6,-1.6
COc1ccc2c(c1)nc(SCC(=O)c1ccc(Br)s1)n2C,11.9,5.7,-14.8,-0.6,10413,20.8,-1.6
CCCN(Cc1cc2ccc(C)cc2[nH]c1=O)S(=O)(=O)c1ccccc1,-2.2,11.4,-12.5,-7.3,2886,-0.9,-2.6
c1ccc(-c2cn3nc(-c4ccccc4)c(-c4ccccc4)nc3n2)cc1,19.4,9.2,69.7,-19.9,5284,-3.5,0.8
CC(NC(=O)Cn1cc(Br)c([N+](=O)[O-])n1)c1ccccc1 (stereo unspecified),7.8,4.2,13.2,-38.9,3887,6.3,6.9
Cc1c2c(nc3nc4ccccc4n13)CC(C)(C)CC2=O,4.5,1.1,-1.0,-17.5,9667,-0.2,-13.3
O=C(CC(=O)Nc1cccc(F)c1)Nc1cccc(F)c1,-4.2,9.0,-4.7,-5.8,4136,-1.1,5.1
COc1ccc(NC(=O)CSc2nnc(-c3ccc(F)cc3)o2)cn1,-3.6,-4.6,-3.4,-26.6,6556,-3.9,.
Cc1ccc(C(=O)NC(=S)Nc2c(C)ccc3nsnc23)cc1,10.4,-3.1,-1.8,-7.9,2689,0.6,0.0
COc1ccc(C#Cc2c(-c3ccsc3)oc3ccc(N4CCOCC4)cc23)cc1,11.2,8.2,7.4,8.1,3898,-8.2,-0.3
